Screening data (PubChem)
KCNQ2 enhance – potentiators of rat KCNQ2 potassium channel. Potassium voltage-gated channel subfamily KQT member 2 (Rattus norvegicus), O88943. CHO-K1 KCNQ2, FluxOR thallium flux fluorescence; stronger effect = higher value. B-score at 10 µM. 0.54% of 310,000 active. AID 2239, 2010;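 active means fluorescence ratio B-score at least 3 SD of library B-scores, with initial fluorescence B-score within 3 SD, cut at about 5.3 in these data; same plate scores as AID 2156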;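 further: B-score of peak minus minimum over baseline fluorescence ratio after K+ and Tl+ stimulus; positive B-score means potentiation of KCNQ2 with more thallium influx and brighter signal; only the inactives scoring about 0 or higher are listed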
Target sequence (O88943 whole entry, looked up): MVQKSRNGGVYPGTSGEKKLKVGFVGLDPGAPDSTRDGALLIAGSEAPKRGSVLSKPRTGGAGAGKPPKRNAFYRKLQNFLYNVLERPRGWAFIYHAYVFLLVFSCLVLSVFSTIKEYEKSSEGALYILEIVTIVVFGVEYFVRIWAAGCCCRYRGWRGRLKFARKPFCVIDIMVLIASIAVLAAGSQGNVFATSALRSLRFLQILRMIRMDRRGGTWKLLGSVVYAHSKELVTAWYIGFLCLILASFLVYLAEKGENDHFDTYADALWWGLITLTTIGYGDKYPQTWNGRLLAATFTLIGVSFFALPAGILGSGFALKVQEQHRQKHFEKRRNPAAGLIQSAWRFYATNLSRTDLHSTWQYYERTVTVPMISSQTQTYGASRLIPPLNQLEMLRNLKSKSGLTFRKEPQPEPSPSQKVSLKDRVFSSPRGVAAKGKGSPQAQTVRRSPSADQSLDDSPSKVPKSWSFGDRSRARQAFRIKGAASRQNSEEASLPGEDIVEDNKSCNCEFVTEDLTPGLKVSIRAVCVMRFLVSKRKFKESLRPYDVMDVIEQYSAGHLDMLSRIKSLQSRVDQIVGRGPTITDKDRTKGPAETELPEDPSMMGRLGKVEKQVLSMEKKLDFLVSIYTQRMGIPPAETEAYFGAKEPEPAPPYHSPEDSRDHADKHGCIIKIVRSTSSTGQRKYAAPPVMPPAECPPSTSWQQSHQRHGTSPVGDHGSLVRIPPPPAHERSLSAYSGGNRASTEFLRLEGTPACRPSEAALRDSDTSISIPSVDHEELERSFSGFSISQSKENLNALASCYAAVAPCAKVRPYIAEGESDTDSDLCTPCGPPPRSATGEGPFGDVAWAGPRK
KCNQ2 enhance baseline – further read-out of KCNQ2 enhance, marked with its call; B-score; compound at 10 µM; measured here: initial fluorescence intensity artifact check;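 brightness before thallium and not channel activity; 0 = typical well and far values either way flag optical interference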
* marks the source's active call; other numbers are inactive results. A portion of the library, so the mix of outcomes need not match the whole.

Values in the order – KCNQ2 enhance | KCNQ2 enhance baseline
O=C(NCc1cccnc1)C1CC(=O)N(C2CCCCC2)C1 (stereo not given)
 : 0.98 | -1
NS(=O)(=O)c1cccc(NC(=O)COC(=O)CC2CC3CCC2C3)c1 (stereo not given)
 : 3.2 | -1.4
O=C(CSc1nc(-c2ccco2)cc(C(F)(F)F)n1)N1CCCc2ccccc21
 : 0.96 | 1.5
Cc1nc(N)nc2c1CCCC2
 : 1.7 | 1.4
Cc1ccc(C)c(NC(=O)CN(C)C(=O)c2cccc(S(=O)(=O)N3CCN(Cc4ccccc4)CC3)c2)c1
 : 0.18 | 1.8
CSc1cccc(NC(=S)N(CCCN2CCCC2)Cc2cccs2)c1
 : 3.1 | 0.35
COc1cc(/C=C(\NC(C)=O)C(=O)Nc2ccc(NC(C)=O)cc2)ccc1OC(C)=O
 : 0.11 | -2.9
COCCN1CCN(C(=O)c2cc(COc3cncc(Cl)c3)on2)CC1
 : 0.6 | -2.5
CCc1c(C)nc2cc(-c3cccc(Br)c3)[nH]n2c1=O
 : 2.1 | -0.06
Cc1cc(C)c(S(=O)(=O)Nc2ccccn2)c(C)c1
 : 0.19 | 2.3
CC(C)CCNC(=O)c1ccc2c(SCC(=O)O)c3c(nc2c1)CCCC3
 : 0.2 | -1.9
CC(=O)N1N=C(c2ccco2)CC1c1ccc(Cl)o1 (stereo not given)
 : 1 | 0.3
CC(C)(CC(=O)O)CC(=O)Nc1ccccc1Oc1ccccc1
 : 0.54 | 0.14
O=C(Cn1nnc(-c2ccc(N3CCOCC3)cc2)n1)OC1CCCCC1
 : 0.24 | 1.3
Cc1cccc(C(=O)OCCN2CCOCC2)c1
 : 0.73 | -2
CN(NC1OC(=O)c2ccccc21)c1ccc(Cl)cc1[N+](=O)[O-] (stereo not given)
 : 0.51 | -0.35
Cc1ccc(C(=O)N/C(=C\c2ccco2)C(=O)NCCN2CCOCC2)cc1C
 : 0.56 | -0.54
CCCC(=O)Nc1ccc(NC(=O)Cc2ccccc2)cn1
 : 0.02 | 1.6
CCOC(=O)c1c(C)c(-c2ccccc2)n(CC(=O)NCCC(C)C)c1C
 : 0.54 | -0.01
O=C(NCc1ccco1)Nc1ccc2nsnc2c1
 : 4.5 | 0.98
CN(C1=NC(=O)C(CC(=O)O)S1)c1ccc(O)cc1 (stereo not given)
 : 1.5 | -0.33
CC(=O)Nc1ccc(C(C#N)c2ccccc2)cc1 (stereo not given)
 : 1.1 | 3.3
CCCS(=O)(=O)N1CCC(C(=O)N2CCCC2)CC1
 : 0.02 | -1.1
Nc1ccc(-c2cc(N)n(-c3ccccc3)n2)cc1
 : 0.38 | 2.1
CSCCC(NC(=O)c1ccco1)C(=O)N1CCN(Cc2ccccc2)CC1 (stereo not given)
 : 0.72 | 0.18
Cc1ccnc(NC(=O)Cc2ccc([N+](=O)[O-])cc2)c1
 : 0.39 | -1.2
COc1ccc(C(=O)NC2CCCc3c2cnn3-c2ccccc2F)o1 (stereo not given)
 : 0.79 | -0.54
COC(=O)c1c(S(C)(=O)=O)nc(-c2ccccc2)[nH]c1=O
 : 0.5 | -1.5
CCN(CC(=O)Nc1c(F)cccc1F)C(=O)CCNS(=O)(=O)c1ccccc1C(F)(F)F
 : 0.06 | 2.3
COCCNc1oc(COc2cccc(C)c2)nc1C#N
 : 0.55 | -1.5
CCOC(=O)c1c(C)[nH]c(C)c1C(=O)COC(=O)[C@@H]1CCCN1S(=O)(=O)c1ccc(Cl)cc1
 : 1.2 | -0.03
CCC1(CC)NC(=O)N(CC(=O)NCc2ccc3c(c2)OCO3)C1=O
 : 0.02 | -1.2
Cc1cc(C)c(S(=O)(=O)c2cccc(Cl)c2)c(=O)[nH]1
 : 1.7 | -2
CCCCCC[C@@H]([C@@H](C)O)n1cnc2c(N)ncnc21
 : 0.81 | 0.5
COCC(=O)Nc1ccc(OC)c(Cl)c1
 : 0.1 | -0.02
COc1ccc(S(=O)(=O)CCC(=O)Nc2ccc(OC)cc2OC)cc1
 : 0.4 | -2.9
CC(=O)c1ccc(NC(=O)CSc2nnc(Cn3cnc4ccccc43)o2)cc1
 : 0.44 | 6.6
O=C(COC(=O)Cc1ccc2c(c1)OCCO2)Nc1ccc(S(=O)(=O)N2CCCC2)cc1
 : 0.68 | 0.45
CC1(C)CC(=O)C(C=NCCN2CCOCC2)=C(O)C1
 : 1.7 | -0.77
CCNC(=O)COC(=O)C1CCN(S(=O)(=O)c2ccc3c(c2)OCCO3)CC1
 : 0.34 | -1.3
Cc1cccc(NC(=O)C2CCN(c3nccc(C)n3)CC2)c1
 : 0.47 | 0.1
CC(C)OC(=O)CSc1nnc(-c2ccc(Cl)cc2Cl)n1N
 : 0.02 | 0.02
CCC(C)[C@H](NC(=O)[C@@H]1Cc2c([nH]c3ccccc23)C2c3ccccc3C(=O)N21)C(=O)N1CCC[C@@H]1C(=O)O (stereo not given in full)
 : 0.36 | -0.02
CCN(CC)c1ccc(-c2n[nH]c(=S)n2-c2ccccc2C)cc1
 : 1.2 | -0.16
Cc1ccc(NC(=O)CN2C(=O)COc3ccc(S(=O)(=O)N4CCCC4)cc32)cc1C
 : 0.25 | -0.62
CCOC(=O)CNC(=O)CSc1nc(N)cc(N)n1
 : 1.3 | -0.71
O=C(Nc1ccc(F)cc1F)Nc1csc2ccccc12
 : 1.1 | -0.31
Cc1nnc(N/N=C/C2CC=CCC2)[nH]c1=O (stereo not given)
 : 0.17 | -0.03
CNC(=O)NC(=O)COC(=O)/C=C/c1cccc(Br)c1
 : 0.29 | 0.05
O=C1c2ccccc2C(=O)C1c1nccc2ccccc12
 : 1.3 | 1.5
Cc1cccc(C(=O)Nc2ccc(S(=O)(=O)Nc3nc(C)cc(C)n3)cc2)c1
 : 1.8 | 0.38
CCOP(=O)(OCC)C(NC(C)=O)C(=O)c1ccccc1 (stereo not given)
 : 0.26 | -0.41
COc1ccc(-c2cn[nH]c2-c2ccc(OCC(=O)NN)cc2O)cc1OC
 : 0.02 | 0.45
C[C@H]1CC[C@]2(O[C@@H](CCO)C[C@@H](O)[C@@H]2O)O1
 : 0.18 | 1.3
COc1ccccc1OCCn1c(=O)oc2ccc(C)cc21
 : 0.01 | -2.5
CN(Cc1ccccc1)c1ccc(N2C(=O)CCCC2=O)cc1[N+](=O)[O-]
 : 1.7 | 0.4
CC(C)NC(=O)C(OC(=O)c1ccccc1)C(OC(=O)c1ccccc1)C(=O)O (stereo not given)
 : 0.93 | -0.08
Cc1cc(C)cc(COc2ccc3c(C)c(CC(=O)O)c(=O)oc3c2C)c1
 : 0.13 | -0.41
CCC1CCCCN1S(=O)(=O)c1ccc(NC(=O)C2CCCO2)cc1 (stereo not given)
 : 0.05 | -1.6
CCc1ccc(C)[n+](CC(=O)c2cccs2)c1
 : 0.31 | 1.1

Carrying on.
Values in the order – KCNQ2 enhance | KCNQ2 enhance baseline
CCCOc1ccc(/C=C2\SC(N)=NC2=O)cc1OC
 : 0.13 | 0.33
Cc1noc(C)c1C(=O)NCCc1ccc(S(N)(=O)=O)cc1
 : 0.77 | 0.06
COC(=O)c1sccc1NC(=O)c1ccc(C#N)cc1
 : 0.61 | -1.2
O=C(NCCCN1CCCC1=O)Nc1ccc(Cl)cc1Cl
 : 0.11 | -1.9
CC1CSc2ccccc2NC1=S (stereo not given)
 : 0.59 | 1.6
C=CCn1c(=O)c2ccccc2n2nnc(C(=O)OCC)c12
 : 1.6 | 0.53
Cc1ccc(NC(=O)COC(=O)c2ccc([N+](=O)[O-])s2)c(C)c1
 : 0.17 | -0.85
O=C1c2ccccc2NC2CCCCCN12 (stereo not given)
 : 1.8 | 0.33
Cc1ccc(S(=O)(=O)NCc2cc(=O)n(C)c(=O)n2C)cc1C
 : 0.61 | 2.4
CCCOc1ccc(N2C(=O)CC(NCCNc3ccc(S(=O)(=O)CC)cc3)C2=O)cc1 (stereo not given)
 : 0.36 | -0.6
CCc1ccc2[nH]c3nc(C)cc(C)c3c(=O)c2c1
 : 0.58 | -0.17
Cc1ccnc(SCCn2c(N3CCN(C)CC3)nc3c2c(=O)n(C)c(=O)n3C)n1
 : 0.84 | 0.87
COCCNC(=O)C(c1ccc(C)cc1)N(Cc1ccco1)C(=O)CCC(=O)Nc1ccccn1 (stereo not given)
 : 0.04 | -0.04
O=C(Nc1ccc(F)cc1)c1ccc(CN2CCc3ccccc3C2)cc1
 : 0.03 | -0.92
O=S(=O)(Nc1nc2ccccc2nc1NCc1ccco1)c1ccc(F)cc1
 : 2.1 | 1
O=C(CSc1cccc[n+]1[O-])N1CCCc2ccccc21
 : 15* | -0.69*
O=C(CN1CCCCC1)Nc1ccc(F)c(Cl)c1
 : 1.1 | 0
O=C(NCc1cccs1)C1CC(=O)N(c2ccccc2)C1 (stereo not given)
 : 2 | -1.5
COc1ccc(CNC(=O)CN(c2cccc(OC)c2)S(C)(=O)=O)cc1
 : 1.8 | 0.33
CC[C@@]12C(=O)N(c3ccc(OC)cc3)C(=O)N1[C@H](c1ccc(Cl)cc1)[C@@H]1C(=O)N(C3CCCCC3)C(=O)[C@@H]12
 : 1.5 | 0.33
CCCCC1=CC2=CC(=O)C(C)(OC(=O)CC)C(=O)C2=CN1C1CCCC1 (stereo not given)
 : 0.21 | -0.23
COc1ccccc1N1CCN(CC(=O)Nc2nc(C)c(C(=O)N(C)C)s2)CC1
 : 1.4 | 0.17
Cc1cc(C(=O)C(C)OC(=O)C2=NNC(=O)CC2)c(C)n1-c1ccc(OC(F)F)cc1 (stereo not given)
 : 1 | -0.18
CCCN1CCN(C(=O)CCCNC(=O)c2ccc(Cl)cc2)CC1
 : 0.88 | -0.34
O=C(CSc1ncnc2c1cnn2CCO)Nc1cccc(C(F)(F)F)c1
 : 0.03 | 2.3
O=C(c1ccc(Cl)cc1)N1CCN(c2ncccn2)CC1
 : 0.28 | 0.21
O=C(CC1SC(=Nc2ccc(O)cc2)NC1=O)Nc1ccccc1 (stereo not given)
 : 0.33 | -0.24
COc1ccc(-c2nsc(SCC(=O)NCC3CCCO3)n2)cc1 (stereo not given)
 : 0.82 | 1.9
Cc1ccc(-n2ncc3c2CCCC3NC(=O)c2csnn2)cc1C (stereo not given)
 : 0.97 | 1.3
Cc1noc(C)c1S(=O)(=O)Nc1ccc(C(=O)N2CCC(C)CC2)cc1
 : 0.02 | -1.4
OCC[C@H]1C[C@H](O)[C@@H](O)[C@]2(CCCO2)O1
 : 0.33 | 0.08
Cc1nnc(NC(=O)C(C)Oc2ccc3c(C)cc(=O)oc3c2)s1 (stereo not given)
 : 0.5 | -0.2
CN(C)c1nc(OCCNC(=O)Nc2ccccc2)nc(N2CCOCC2)n1
 : 0.4 | -0.51
CC1CCCC(NC(=O)CCS(=O)(=O)c2ccc3c(c2)NC(=O)CS3)C1C (stereo not given)
 : 1.3 | 1.1
Nc1nnc(SCC(=O)c2ccc3c(c2)NC(=O)CO3)s1
 : 0.69 | -0.65
CCC(=O)Nc1sc2c(c1C#N)CC(C)(CC)OC2 (stereo not given)
 : 0.07 | 0.96
CC(C)(C)C(=O)Nc1nc(NC(=O)C(C)(C)C)nc(-c2ccccc2Cl)n1
 : 1.2 | -0.19
NS(=O)(=O)c1ccc(CNC(=O)c2scc3c2CCCC3)cc1
 : 1.8 | 0.04
Cc1cc(C(=O)CSc2nnc(N)s2)c(C)n1Cc1cccs1
 : 1.6 | -2.5
CCCCOC(=O)c1ccc(NC(C)=O)cc1
 : 0.61 | 0.24

Three compounds drawn at random from those above, as already listed:
Values in the order – KCNQ2 enhance | KCNQ2 enhance baseline
Cc1cc(C(=O)C(C)OC(=O)C2=NNC(=O)CC2)c(C)n1-c1ccc(OC(F)F)cc1 (stereo not given)
 : 1 | -0.18
CC(C)(C)C(=O)Nc1nc(NC(=O)C(C)(C)C)nc(-c2ccccc2Cl)n1
 : 1.2 | -0.19
O=C(CSc1ncnc2c1cnn2CCO)Nc1cccc(C(F)(F)F)c1
 : 0.03 | 2.3

For reference, some entries already given:
Values in the order – KCNQ2 enhance | KCNQ2 enhance baseline
Cc1cc(C(=O)CSc2nnc(N)s2)c(C)n1Cc1cccs1
 : 1.6 | -2.5
CCCCOC(=O)c1ccc(NC(C)=O)cc1
 : 0.61 | 0.24

Going on with the list.
Values in the order – KCNQ2 enhance | KCNQ2 enhance baseline
O=C1CCCC2=C1C(c1ccc(Cl)cc1)C1C(=O)c3ccccc3C1=N2 (stereo not given)
 : 2.6 | -3.7
COC(=O)c1c(NC(=O)CC2SC(N)=NC2=O)sc(C)c1C (stereo not given)
 : 0.11 | -1.7
O=c1cc(CN2CCN(S(=O)(=O)c3ccccc3)CC2)nc2sccn12
 : 0.42 | 0.51
Cc1cc(=O)n2[nH]c(N)c(N=Nc3ccccc3F)c2n1
 : 0.02 | 0.01
CN(CC(=O)Nc1ccc(F)c(F)c1F)C(=O)c1ccc(-n2cncn2)c([N+](=O)[O-])c1
 : 0.05 | -1.8
Cc1coc2cc3oc(=O)c4c(c3cc12)CCC4
 : 0.79 | -0.03
O=C(NCCCN1CCN(c2ccccc2F)CC1)C1CCCN(S(=O)(=O)c2cnc[nH]2)C1 (stereo not given)
 : 1.2 | -1.2
CC1CCCN(C(=O)CCNS(=O)(=O)c2ccc3c(c2)oc(=O)n3C)C1 (stereo not given)
 : 0.73 | 0.01
CN(C)C(=O)CSc1nc2ccccc2n1Cc1ccccc1
 : 0.78 | -0.45
c1ccc(-c2cc(-c3ccccc3)on2)cc1
 : 0.05 | 0.32
CCCn1c2ccc(C)cc2c2nnc(SCCN3CCOCC3)nc21
 : 0.53 | 2.4
COC(=O)c1ccc(Cn2nnc3c(=O)[nH]c(C4CCCN(S(=O)(=O)c5cccc(Cl)c5)C4)nc32)cc1 (stereo not given)
 : 1.4 | -0.98

Compounds shown so far that have bromine, in the order listed:
Values in the order – KCNQ2 enhance | KCNQ2 enhance baseline
CCc1c(C)nc2cc(-c3cccc(Br)c3)[nH]n2c1=O
 : 2.1 | -0.06
CNC(=O)NC(=O)COC(=O)/C=C/c1cccc(Br)c1
 : 0.29 | 0.05
